MbtI inh = blocks the Mycobacterium tuberculosis siderophore enzyme MbtI; P9WFX0; purified MbtI enzyme, fluorescence intensity read-out; inhibition, %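 (about 17 µg/mL by stock and volumes)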; hit rate 0.89% among 100,000; AID 493033;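 active = above 50% in both replicates, above 80% if mildly self-fluorescent; inactive = the rest, strongly fluorescent compounds included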;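 also: 0% = mean of negative and 100% = mean of positive controls; one replicate is shown; some compounds called inactive have numbers as strong as hits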
MenB inh = Mtb MenB enzyme inhibition; P9WNP5; MenB enzyme assay, absorbance read-out; some hits fall short of the stated cut; inhibition, %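 (about 12 µg/mL by stock and volumes)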; hit rate 0.43% among 100,000;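 active = mean of two replicates above 30%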;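 also: 0% = no compound and 100% = wells with inactive enzyme; the first replicate is given; strong numbers were not always called active; inactives centre near -10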
Target sequence (P9WNP5 whole entry, looked up): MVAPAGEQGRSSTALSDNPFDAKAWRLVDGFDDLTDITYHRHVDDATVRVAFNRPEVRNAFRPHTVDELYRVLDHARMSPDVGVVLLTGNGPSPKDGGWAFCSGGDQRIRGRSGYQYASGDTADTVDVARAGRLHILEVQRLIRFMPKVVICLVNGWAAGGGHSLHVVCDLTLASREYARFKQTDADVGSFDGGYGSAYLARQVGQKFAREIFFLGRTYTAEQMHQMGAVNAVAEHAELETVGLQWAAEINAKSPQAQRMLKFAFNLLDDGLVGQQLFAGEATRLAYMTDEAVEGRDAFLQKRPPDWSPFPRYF
PV pol inh = inhibitors of poliovirus RNA polymerase binding and polymerization | P03300 | poliovirus polymerase elongation, fluorescence polarization; stronger effect = lower value | % elongation, % (compound at 16.7 µg/mL) | hit rate 0.66% among 150,000; in the data active = % elongation below about 90%; also: some results filed as inactive read as strong as hits
Target sequence (P03300 1749-2209 limits assumed): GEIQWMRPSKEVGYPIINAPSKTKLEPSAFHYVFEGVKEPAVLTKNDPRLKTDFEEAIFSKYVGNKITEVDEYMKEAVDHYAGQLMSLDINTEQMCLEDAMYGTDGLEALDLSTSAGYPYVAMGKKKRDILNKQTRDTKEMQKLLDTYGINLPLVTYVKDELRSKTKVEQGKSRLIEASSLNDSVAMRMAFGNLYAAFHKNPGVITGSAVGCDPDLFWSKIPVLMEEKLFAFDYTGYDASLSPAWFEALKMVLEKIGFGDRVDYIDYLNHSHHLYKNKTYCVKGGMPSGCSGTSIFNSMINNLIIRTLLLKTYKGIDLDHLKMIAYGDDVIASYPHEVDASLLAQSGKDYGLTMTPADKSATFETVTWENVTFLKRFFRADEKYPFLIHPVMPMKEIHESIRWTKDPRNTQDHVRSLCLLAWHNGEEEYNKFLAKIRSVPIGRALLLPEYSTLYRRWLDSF
PV pol inh intensity = second read-out of PV pol inh, no call of its own (marks repeat the call); % elongation; measured here: total intensity read-out; formula for this scale not given here;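 total fluorescence in place of polarization; lower means less elongation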
Active calls of the source: *; · = not tested or not shown.

Molecule	MbtI inh	MenB inh	PV pol inh	PV pol inh intensity
CCC(=O)c1cn(Cc2ccccc2C#N)c2ccccc12	·	-24	106	107
O=C(CSc1ccccc1)Nc1ccc2[nH]c(=O)[nH]c2c1	3	-40	103	103
Cc1ccc2c(Cl)cc(Cl)c(OCC(=O)OCC(=O)Nc3ccc4c(c3)OCO4)c2n1	-21	-53	103	101
c1ccc(-c2nnc(N3CCc4ccccc43)nc2-c2ccccc2)cc1	-3	15	99	98
N#Cc1ccccc1OC(=O)CCN1C(=O)c2ccccc2C1=O	8	13	98	100
Cn1nnn(CN2CCc3ccccc3C2)c1=S	6	3	105	96
O=C1Nc2ccccc2C1(O)c1c[nH]c2ccccc12 (stereo unspecified)	-4	-6	104	102
Cc1nc(C)c(-c2ccn(C(=O)Nc3c(-c4c(Cl)cccc4Cl)noc3C)n2)s1	10	-8	105	103
OC(c1ccccc1)(c1ccccc1)C1CCN(C(=S)NCCc2ccccc2)CC1	-5	-65	105	101
Cc1cc(C(=O)COC(=O)c2cc(S(=O)(=O)N(C)C)ccc2N2CCCC2)c(C)n1C1CC1	3	4	106	107
COc1ccc(CNC(=O)C2CCCN2)cc1OC (stereo unspecified)	-3	-3	102	98
Cc1ccc(C(=O)c2ccc(C)c(C)c2)cc1C	3	-21	102	108
N#Cc1c(C(F)(F)F)c2c([nH]c1=S)CCCC2	22	-99	116	107
CCn1c(SC(C)C#N)nnc1-c1cccs1 (stereo unspecified)	-5	-1	102	109
COc1ccc(NC(=O)COC(=O)C2CC3C=CC2C3)cc1 (stereo unspecified)	-6	-3	101	108
NC(=S)c1ncc(C(F)(F)F)cc1N1CCCC1	2	-45	102	111
Cn1ncc2c(N3CCN(c4ccccc4)CC3)ncnc21	-18	-1	100	102
C=CCNC(=O)c1cc2c(=O)n3cccc(C)c3nc2n(CCN2CCOCC2)c1=N	88	-128	102	98
CCc1nc2ccc(NC(C)=O)cc2c(=O)n1Cc1ccccc1	4	-18	104	101
Cc1oc(-c2ccccc2)nc1C(=O)OCC(=O)Nc1ccnn1C(C)C	0	1	107	107
COC(=O)c1ccc(NC(=O)CC(C)CC(=O)O)cc1 (stereo unspecified)	2	0	100	102
COc1ccccc1N1CCN(C2=Nc3cccc4cccc2c34)CC1	1	-86	127	213
CCOC(=O)c1c(Cc2ccc(Cl)cc2)c[nH]c1C	2	10	100	102
NC(N)=NOCC[C@H](N)C(=O)O	-15	-7	100	102
O=C(O)c1cnn2c(C(F)(F)F)cc(-c3ccco3)nc12	14	-74	99	99
O=C(Nc1csnc1-c1c(Cl)cccc1Cl)NN1CCCCC1	-6	-8	108	112
N#CCOc1nc(N2CCCCC2)nc(N2CCCCC2)n1	·	-19	99	88
Cc1cccn2c(=O)c3cc(C(=O)NCCN4CCOCC4)c(=N)n(CCCN4CCOCC4)c3nc12	118	-44	103	103
COc1cccc(C(c2cc3c(cc2O)OCO3)N2CCCC2)c1O (stereo unspecified)	·	-2	107	103
Cc1cnc(C(=O)Nc2ccc(C(=O)N(C)C3CCCCC3)cc2)cn1	-9	-39	103	99

Pulled by compound from the list above, 3 records:
Molecule	MbtI inh	MenB inh	PV pol inh	PV pol inh intensity
COc1ccc(CNC(=O)C2CCCN2)cc1OC (stereo unspecified)	-3	-3	102	98
NC(N)=NOCC[C@H](N)C(=O)O	-15	-7	100	102
COc1ccc(NC(=O)COC(=O)C2CC3C=CC2C3)cc1 (stereo unspecified)	-6	-3	101	108

Later entries:
Molecule	MbtI inh	MenB inh	PV pol inh	PV pol inh intensity
COc1ccc(C(=O)CSc2nnc(C)n2Cc2ccccc2)cc1OC	-2	-161	99	103
CSc1nc2sc3c(c2c2nncn12)CCC(C(C)(C)C)C3 (stereo unspecified)	5	6	103	102
Cc1ccc(CS(=O)Cc2ccc(C(=O)N3CCN(Cc4ccccc4)CC3)o2)cc1 (stereo unspecified)	-4	-24	102	94
COc1cc(NC(=O)C(F)(F)F)c(OC)cc1Br	-7	33*	102	103
O=C(Nc1cc(F)ccc1F)C1(c2ccc(F)cc2)CCCC1	-4	·	102	95
Cc1cc(C)c(C#N)c(SCC(=O)NCC2CCCCC2)n1	3	·	104	104
CC1CCCC(C)N1CCNc1nc2ccccc2c2nc(-c3ccccc3)nn12 (stereo unspecified)	-3	-6	103	109
Cc1nn(-c2ccccc2)c2sc(C(=O)NN3C(=O)c4ccccc4C3=O)cc12	-7	-91	100	100
Cc1ccc(-c2cccc(NC(=O)C3C4C=CC(C4)C3C(=O)O)c2)o1 (stereo unspecified)	-40	·	101	100
Cc1ccc(S(=O)(=O)N2CC=C(C(=O)NCc3ccccc3)CC2)cc1	1	11	97	102

Remaining list, next part.
Key to letters: A = MbtI inh; B = MenB inh; C = PV pol inh; D = PV pol inh intensity
Molecule: CN(C)c1ccc(C(=S)N2CCN(C(c3ccccc3)c3ccccc3)CC2)cc1
  A = 0	B = -30	C = 103	D = 96
Molecule: CCC(C)N(C(=O)NC1CCCCC1)C(C)CC (stereo unspecified)
  A = -12	B = -10	C = 101	D = 106
Molecule: O=C(CSC1CCCCC1)NCc1ccccc1
  A = -1	B = -12	C = 100	D = 99
Molecule: NC(=S)N/N=C/c1ccco1
  A = 41	B = -29	C = 113	D = 133
Molecule: Cc1ccc(NC(=O)COC(=O)c2nc(Cl)ccc2Cl)cc1
  A = 0	B = ·	C = 101	D = 103
Molecule: Cc1cccc(NC(=O)CS(=O)(=O)c2cn(C)c3ccccc23)c1
  A = -1	B = 1	C = 100	D = 100
Molecule: COCCn1c(-c2cc3ccccc3o2)csc1=Nc1ccc(OC(F)F)cc1
  A = -5	B = -48	C = 105	D = 103
Molecule: CC1=NOC(=O)/C1=C/c1ccc(O)cc1
  A = 92*	B = -38	C = 99	D = 102
Molecule: CCOc1ccc2[nH]c(=O)c(CN(Cc3cccnc3)S(=O)(=O)c3ccccc3)cc2c1
  A = 6	B = -15	C = 104	D = 102
Molecule: COc1ccc(OC)c(/C=N/N2C(=O)C3C(C2=O)C2C=CC3C23CC3)c1 (stereo unspecified)
  A = ·	B = -1	C = 104	D = 111
Molecule: NC(Cc1ccccc1)C(=O)O (stereo unspecified)
  A = -141	B = 6	C = 102	D = 103
Molecule: O=C(OCC(=O)N1CCc2ccccc2C1)c1ccc(F)cc1Cl
  A = 0	B = ·	C = 101	D = 104
Molecule: COC(=O)C1Cc2ccccc2CN1Cn1nc(-c2ccco2)n(-c2ccccc2)c1=S (stereo unspecified)
  A = -29	B = -39	C = 101	D = 103
Molecule: O=C(Nc1c(C(=O)N2CCOCC2)oc2ccccc12)c1cccc(F)c1
  A = -5	B = -5	C = 102	D = 101
Molecule: O=C(OCC(=O)N(C1CCCCC1)C1CCCCC1)c1ccc(Br)o1
  A = -2	B = 4	C = 103	D = 107
Molecule: O=C1CCN(C(=O)c2ccc(-c3cccc(C(F)(F)F)c3)o2)CC1
  A = 15	B = -2	C = 102	D = 101
Molecule: Cc1ccc(NCC(=O)N=Nc2c(O)[nH]c3ccccc23)cc1
  A = 4	B = -70	C = 106	D = 98
Molecule: COc1ccc(CN(CC(=O)NC2CCCC2)C(=O)Cn2nnc(-c3ccc(OC)cc3)n2)cc1
  A = 2	B = 33*	C = 102	D = 100
Molecule: Cc1nn(-c2ccccc2)c(Cl)c1/C=C/C(=O)O
  A = 16	B = -16	C = 108	D = 116
Molecule: CCOC(=O)N1CCC(N(CCOC)C(=S)Nc2ccc(C)cc2C)CC1
  A = -8	B = 0	C = 104	D = 108
Molecule: Nc1nc(=Nc2ccccc2)n2c(n1)sc1ccccc12
  A = ·	B = -22	C = 109	D = 110
Molecule: COc1ccccc1-c1nn(CCC(=O)NC2CCCC2)c2nc(C)cc(C)c12
  A = 109	B = -7	C = 102	D = 101
Molecule: O=C(Cc1ccccc1)Nn1cnc2ccccc21
  A = -17	B = ·	C = 103	D = 105
Molecule: Cc1cc(C)nc(-n2nc(C)cc2NC(=O)CNC2CCCCC2)n1
  A = -8	B = -16	C = 102	D = 96
Molecule: CCn1ccnc1P(=O)(c1ccccc1)N1CCOCC1 (stereo unspecified)
  A = ·	B = -8	C = 105	D = 106
Molecule: Cc1cc(NC(=O)c2cc(-c3ccc(F)cc3)no2)nn1CC(=O)N1CCC(C)CC1
  A = 8	B = -9	C = 100	D = 96
Molecule: O=C(Cn1nnc2ccccc21)C1CC1
  A = ·	B = -18	C = 109	D = 99
Molecule: Cc1ccc(CNC(=O)CSc2nc3ccsc3c(=O)n2C2CC2)cc1
  A = 18	B = 4	C = 104	D = 99
Molecule: CNC(=S)NNc1ncccc1-n1cccc1
  A = 40	B = -25	C = 100	D = 97
Molecule: COC(=O)C1CN(C(=O)/C=C/c2ccccc2)c2ccccc2O1 (stereo unspecified)
  A = 3	B = 0	C = 102	D = 102
Molecule: O=C(C1CC1)N1N=C(c2ccc(Cl)cc2)CC1(O)C(F)(F)F (stereo unspecified)
  A = -7	B = -23	C = 101	D = 102
Molecule: CCCCCn1c(=O)c2ccccc2n2c(Cn3ncc(Cl)c(Cl)c3=O)nnc12
  A = 1	B = -9	C = 103	D = 112
Molecule: NNC(=O)C(O)c1ccc(Cl)cc1 (stereo unspecified)
  A = 1	B = 10	C = 99	D = 100
Molecule: CN1CCN(c2c(N)cccc2Cl)CC1
  A = -4	B = 7	C = 104	D = 100
Molecule: NNc1nc(NN)nc(Nc2cccc(C(F)(F)F)c2)n1
  A = ·	B = -12	C = 101	D = 110
Molecule: O=c1cc[nH]c2c(Cl)c(Cl)ccc12
  A = -10	B = -14	C = 103	D = 114
Molecule: COC(=O)C(C)NC(=O)C12CC3(C)CC(C)(CC(C)(C3)C1)C2 (stereo unspecified)
  A = -7	B = -2	C = 103	D = 106
Molecule: COc1cccc2cc(-c3nc4ccccc4[nH]3)c(=N)oc12
  A = -1	B = 4	C = 97	D = 90
Molecule: CC(c1ccco1)N(C(=O)COc1ccc(Cl)cc1)c1ccccn1 (stereo unspecified)
  A = -8	B = -30	C = 103	D = 104
Molecule: CCC(C)NC(=O)CCn1c(=O)sc2ccccc21 (stereo unspecified)
  A = -12	B = -8	C = 100	D = 103
Molecule: Cc1cc(C)c2c(c1)CC(C)(C)c1[nH]c(-c3ccccc3)nc1-2
  A = 90	B = -10	C = 99	D = 106
Molecule: O=C(Nc1cccc2ccccc12)OC1C=CS(=O)(=O)C1 (stereo unspecified)
  A = 0	B = -9	C = 101	D = 101
Molecule: FC(F)(F)Cc1nc2ccccc2s1
  A = -1	B = ·	C = 103	D = 98

Structures above that contain fluorine, in the order listed:
Key to letters: A = MbtI inh; B = MenB inh; C = PV pol inh; D = PV pol inh intensity
Molecule: N#Cc1c(C(F)(F)F)c2c([nH]c1=S)CCCC2
  A = 22	B = -99	C = 116	D = 107
Molecule: NC(=S)c1ncc(C(F)(F)F)cc1N1CCCC1
  A = 2	B = -45	C = 102	D = 111
Molecule: O=C(O)c1cnn2c(C(F)(F)F)cc(-c3ccco3)nc12
  A = 14	B = -74	C = 99	D = 99
Molecule: COc1cc(NC(=O)C(F)(F)F)c(OC)cc1Br
  A = -7	B = 33*	C = 102	D = 103
Molecule: O=C(Nc1cc(F)ccc1F)C1(c2ccc(F)cc2)CCCC1
  A = -4	B = ·	C = 102	D = 95
Molecule: COCCn1c(-c2cc3ccccc3o2)csc1=Nc1ccc(OC(F)F)cc1
  A = -5	B = -48	C = 105	D = 103
Molecule: O=C(OCC(=O)N1CCc2ccccc2C1)c1ccc(F)cc1Cl
  A = 0	B = ·	C = 101	D = 104
Molecule: O=C(Nc1c(C(=O)N2CCOCC2)oc2ccccc12)c1cccc(F)c1
  A = -5	B = -5	C = 102	D = 101
Molecule: O=C1CCN(C(=O)c2ccc(-c3cccc(C(F)(F)F)c3)o2)CC1
  A = 15	B = -2	C = 102	D = 101
Molecule: Cc1cc(NC(=O)c2cc(-c3ccc(F)cc3)no2)nn1CC(=O)N1CCC(C)CC1
  A = 8	B = -9	C = 100	D = 96
Molecule: O=C(C1CC1)N1N=C(c2ccc(Cl)cc2)CC1(O)C(F)(F)F (stereo unspecified)
  A = -7	B = -23	C = 101	D = 102
Molecule: NNc1nc(NN)nc(Nc2cccc(C(F)(F)F)c2)n1
  A = ·	B = -12	C = 101	D = 110
Molecule: FC(F)(F)Cc1nc2ccccc2s1
  A = -1	B = ·	C = 103	D = 98

Screening results from PubChem.
